UCH37 inh: inhibitors of human deubiquitinating enzyme UCH37. inhibition, % (concentration not given with the values). hit rate 0.33% among 330,000. purified proteasome/UCH37, Ub-AMC cleavage fluorescence;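 active means mean of two replicates above 20%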;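 further: 0% = compound-free wells with enzyme and 100% = wells lacking proteasome; stock transfer was 100 nL into about 20 µL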
Target sequence (Q9Y5K5 whole entry, looked up): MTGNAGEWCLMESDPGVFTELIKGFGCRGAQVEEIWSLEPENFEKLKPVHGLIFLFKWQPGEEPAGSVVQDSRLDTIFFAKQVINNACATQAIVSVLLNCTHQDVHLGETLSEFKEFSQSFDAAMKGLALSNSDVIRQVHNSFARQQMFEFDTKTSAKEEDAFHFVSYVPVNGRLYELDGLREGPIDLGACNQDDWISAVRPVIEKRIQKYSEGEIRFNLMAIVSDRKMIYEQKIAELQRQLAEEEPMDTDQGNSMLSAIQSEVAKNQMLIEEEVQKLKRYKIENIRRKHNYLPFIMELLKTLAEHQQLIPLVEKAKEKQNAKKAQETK
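System: Proteasome-associated human UCH37 deubiquitinase; Input: 0.15 nM proteasome in added enzyme buffer; Also added: Ub-AMC substrate from 1 µM stock; Incubation: 30 min compound-proteasome preincubation then 25 min substrate reaction, room temperature; Detection: fluorescence, ex 355 nm, em 460 nm; Read-out: % inhibition of Ub-AMC cleavage fluorescence; Benchmarks: no-proteasome and no-compound wells.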
Ecoli rRNA inh: inhibitors of bacterial rRNA selective over humanized ribosomes; E. coli WT GFP vs humanized-ribosome RFP mutants, fluorescence, 24 h; active compounds read low; DMSO median 0, no signal -100; GFP signal change (wild-type ribosome), % (concentration not given with the values); hit rate 1.6% among 350,000; AID 720706;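 active means significant combined selectivity score with lowered wild-type GFP, culture density cut under 30%, mutant RFP and density less affected; inactive means any of these conditions unmet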; further: one replicate is shown; some compounds called inactive have numbers as strong as hits
FGF22 binding: binders of recombinant human FGF22 by thermal shift. SYPRO orange fluorescence; percent of sucrose octasulfate shift, DMSO zero. Q9HCT0. hit rate 1.5% among 340,000. calls only at 9.99 µM;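 active means melting point raised past a set limit in the mean and every replicate; three in four hits are not shown here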
ALR inh: inhibitors of human sulfhydryl oxidase ALR. inhibition, % (no concentration beside the values). P55789. hit rate 3.8% among 290,000. purified ALR, DTT oxidation, H2O2 HRP-luminol luminescence;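 active means mean and each replicate at 75% or more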;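 further: stock transfer was 7.5 nL into about 7.5 µL; 0% = neutral wells and 100% = wells with inactivated enzyme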
Target sequence (P55789 whole entry, looked up): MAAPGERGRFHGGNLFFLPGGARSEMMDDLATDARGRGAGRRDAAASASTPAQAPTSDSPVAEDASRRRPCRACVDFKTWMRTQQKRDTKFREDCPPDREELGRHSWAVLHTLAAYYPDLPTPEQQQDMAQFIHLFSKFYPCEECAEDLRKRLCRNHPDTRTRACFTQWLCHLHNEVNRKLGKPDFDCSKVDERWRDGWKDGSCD
HNF4A DNA FP: change in binding of human HNF4 alpha to DNA | P41235 | HNF4a-FITC DNA binding, fluorescence polarization, 1 h | activity change, % at 10 µM | hit rate 0.3% among 360,000; in the data active means activity change above about 30%, passing the limit was not always enough;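 further: controls were the assay level and a saturating level of protein; the project sought stronger binding though the title names inhibitors; some compounds called inactive have numbers as strong as hits; positive values seem to mean higher polarization but the record does not say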
Target sequence (P41235 whole entry, looked up): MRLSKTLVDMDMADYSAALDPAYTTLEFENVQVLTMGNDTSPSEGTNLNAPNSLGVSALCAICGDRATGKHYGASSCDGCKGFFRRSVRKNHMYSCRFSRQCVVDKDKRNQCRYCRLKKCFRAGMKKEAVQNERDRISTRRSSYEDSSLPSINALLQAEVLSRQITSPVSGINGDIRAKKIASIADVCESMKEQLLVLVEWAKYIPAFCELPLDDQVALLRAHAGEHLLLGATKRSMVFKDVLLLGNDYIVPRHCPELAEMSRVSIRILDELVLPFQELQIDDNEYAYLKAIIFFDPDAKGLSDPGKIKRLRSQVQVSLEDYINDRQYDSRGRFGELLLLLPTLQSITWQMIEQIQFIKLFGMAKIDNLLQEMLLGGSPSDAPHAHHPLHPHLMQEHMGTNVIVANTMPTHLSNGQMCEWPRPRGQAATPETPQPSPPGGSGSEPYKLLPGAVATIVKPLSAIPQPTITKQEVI
Beta2AR agonist: human beta-2 adrenergic receptor agonism by FAP. AID 504454. Am2.2-beta2AR cells, FAP receptor internalization, flow cytometry; reference of the scale not given here. hit rate 0.43% among 340,000. response, % (test concentration not listed). P07550;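 active means response above a set limit, near 3 SD of response in nonfluorescent compounds, cut at about 42% in these data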;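 further: stock transfer was 100 nL into about 11 µL; a reference agonist was the positive control; negative values mostly stem from fluorescent compounds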
Ecoli growth: inhibitors of Escherichia coli growth. OD600, 23 h; active compounds read low. OD600 absorbance (no concentration beside the values). hit rate 0.21% among 330,000;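 active means OD600 absorbance below the run mean of sample wells minus 3.6 SD, in any replicate, cut at about 0.56 in these data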;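 further: stock transfer was 300 nL into about 60 µL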
Ecoli rRNA inh OD600: second read-out of Ecoli rRNA inh, no call of its own (marks repeat the call); OD600 change, %; measured here: OD600 growth;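 optical density of the mix in the first replicate; 0 = DMSO median and -100 = no signal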
Ecoli rRNA inh RFP: recorded beside Ecoli rRNA inh, whose call it bears; RFP signal change, %; measured here: RFP humanized mutant strains;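 first replicate; 0 = DMSO median and -100 = no signal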
* marks the source's active call; other numbers are inactive results; i = inactive; . = no result given; & = joins results of further samples. A portion of the library. The share of hits here may be higher or lower than overall.

SMILES | UCH37 inh | Ecoli rRNA inh | Ecoli rRNA inh OD600 | Ecoli rRNA inh RFP | FGF22 binding | ALR inh | HNF4A DNA FP | Beta2AR agonist | Ecoli growth
O=C1CSC(=S)N1/N=C/c1cccnc1 | . | -1 | -3 | -5.4 | i | . | -5.7 | -9 | .
N#Cc1ccccc1CSc1nc2ccc(NC(=O)c3ccccc3C(=O)O)cc2s1 | 6.1 | -23* | -14* | -4.0* | i | 99* | 4.2 | -13 | 0.71
Cc1cccc(OCC(=O)N2CCN(C(=O)c3cccs3)CC2)c1 | 4.8 | 0 | -5 | -2.6 | . | 1 | 0.4 | 2 | 0.68
CN(CC(=O)Nc1cccc(F)c1)C(=O)c1cc2c(s1)CCCCC2 | 0.7 | . | . | . | . | -5 | 4.3 | 11 | 0.72
O=C(CSc1nc(-c2ccc(F)cc2)cc(C(F)(F)F)n1)Nc1ccc2c(c1)OCO2 | 2.0 | . | . | . | . | -1 | 1.4 | -10 | 0.69
Cc1ccc(CN(Cc2cc3cc(C)ccc3[nH]c2=O)C(=O)N2CCOCC2)cc1 | -9.3 | . | . | . | . | . | 0.9 | -2 | 0.73
CCNc1nc(Oc2ccc(=O)[nH]n2)nc(N2CCOCC2)n1 | 2.5 | . | . | . | . | 4 | -3.0 | 4 | 0.65
O=C(CN1CCOc2ccccc21)NCc1ccc(Cl)cc1 | 0.5 | -2 | -4 | 1.4 | i | 99* | 7.1 | -3 | 0.67
Cc1c(NC(=O)/C(=C/c2cccs2)NC(=O)c2ccccc2)c(=O)n(-c2ccccc2)n1C | 8.0 | 7 | 12 | 0.6 | i | -2 | -5.9 | 5 | .
CCOC(=O)C1CCN(C(=O)CCN2C(=O)C3C4C=CC(C4)C3C2=O)CC1 (stereo not drawn) | -0.8 | . | . | . | . | . | 2.3 | 4 | 0.7
Cc1occc1-c1nnc(SCC(=O)c2ccc(Cl)cc2)n1C | 0.1 | . | . | . | . | 5 | 0.4 | -20 | 0.72
COC(=O)c1ccccc1NC(=O)CN1C(=O)NC2(CCCCCCC2)C1=O | 4.6 | 16 | 0 | 1.3 | i | -8 | -1.6 | -8 | 0.72
CN(C)c1ccc(NC(=O)CC2NCCNC2=O)cc1 (stereo not drawn) | 3.1 | . | . | . | . | 99* | 0.9 | 4 | 0.69
CCc1ccc(N2CC(C(=O)OCc3csc(CC(=O)Nc4ccccc4C)n3)CC2=O)cc1 (stereo not drawn) | 0.7 | 9 | 8 | -1.2 | i | 0 | 1.2 | -2 | 0.72
CC(C)[C@H](NC(N)=O)C(=O)Nc1cccc([N+](=O)[O-])c1 | 4.0 | 8 | 6 | -2.7 | i | -19 | -7.6 | 2 | 0.68
Cc1ccccc1-n1c(SC(C)C(=O)N2CCN(C)CC2)nc2ccccc2c1=O (stereo not drawn) | 3.9 | 10 | 5 | 5.5 | i | -1 | 2.0 | -6 | 0.68
Cc1ccc(C(=O)C(OC(=O)CN2C(=O)c3ccccc3C2=O)c2ccccc2)cc1 (stereo not drawn) | 0.6 | . | . | . | . | -4 | -1.4 | 1 | 0.71
CCCc1nc2c(C)cc(Br)cn2c1Cc1ccccc1 | . | -48 | -77 | -11 | i | . | -0.1 | . | .
CC1CCCCC1NC(=O)COC(=O)c1ccc2c(c1)NC(=O)CS2 (stereo not drawn) | 0.3 | -1 | 4 | -4.9 | i | -8 | 1.2 | 4 | 0.67
C[C@H]1CN([C@@H](C)CO)C(=O)c2cccc(NC(=O)Nc3ccc(C(F)(F)F)cc3)c2O[C@@H]1CN(C)C(=O)Nc1ccc(F)cc1 | 2.2 | 9&-2 | 3&0 | 0.3&-1.3 | i | 3 | -1.6 | 5 | .
Cc1ccsc1CNc1ncnc2ccc(-c3c(C)noc3C)cc12 | 1.0 | -37 | -31 | -11 | i | -1 | -4.3 | 1 | 0.69
O=C(CN(C1CC1)S(=O)(=O)c1ccc(S(=O)(=O)NC2CCCCC2)cc1)Nc1ccccc1 | . | . | . | . | . | . | 0.7 | -3 | 0.7
CCC(c1nnnn1Cc1ccco1)N(Cc1cc2cc(C)cc(C)c2[nH]c1=O)CC1CCCO1 (stereo not drawn) | -1.6 | . | . | . | . | 10 | 1.3 | -1 | 0.72
CC[C@@H](CC1CCCCC1)C(=O)N(Cc1ccccc1)c1ccccc1 | -0.5 | 1 | 9 | -4.0 | i | -4 | 2.2 | -6 | 0.79
COc1cccc(NC(=O)CN(C)C(=O)CN2C(=O)c3ccc([N+](=O)[O-])cc3C2=O)c1 | 0.2 | -3 | 10 | -4.2 | i | 30 | -23 | 4 | 0.63

(cont.)
SMILES | UCH37 inh | Ecoli rRNA inh | Ecoli rRNA inh OD600 | Ecoli rRNA inh RFP | FGF22 binding | ALR inh | HNF4A DNA FP | Beta2AR agonist | Ecoli growth
COc1ccc(/C=N/n2cnc3c([nH]c4ccccc43)c2=O)cc1CO | . | 11 | -6 | 0.2 | i | . | 2.2 | -11 | .
O=C1C=C(N2CCOCC2)C2(CCCCC2)O1 | 5.7 | 20 | 21 | 1.1 | i | 0 | 1.4 | -4 | 0.69
O=C(NC(=S)NC1CCS(=O)(=O)C1)c1ccccc1F (stereo not drawn) | . | 6 | 10 | 2.1 | i | -21 | 2.6 | 6 | .
O=C(COC(=O)c1ccc(Cl)c(S(=O)(=O)N2CCCCC2)c1)NCc1ccco1 | 2.3 | -16 | -16 | -0.5 | i | 2 | -9.2 | -1 | 0.64
Cc1c(Cl)cccc1NC(=O)c1ncn[nH]1 | 1.6 | 1 | 6 | 3.4 | i | -1 | -5.2 | -4 | 0.69
COC(=O)[C@]12CCCCC=C1N(CCC1=CCCCC1)C(=O)[C@H](CC(=O)NCCC(C)C)C2 | . | -1 | -10 | 1.2 | i | . | 1.5 | . | .
CCc1c(C)nc2ccc(Br)cc2c1Cl | 6.0 | . | . | . | . | -4 | 2.5 | 0 | 0.65
C/C(=N\NC(=O)c1c(Cl)cnn1C)c1cccnc1 | . | 12 | 10 | 0.3 | i | . | 4.0 | -3 | .
O=C(c1ccccc1)c1cncc(Br)c1 | 1.6 | . | . | . | . | . | -1.3 | -7 | 0.65
CC(=O)N1CCN(c2nc3ccc([N+](=O)[O-])cc3s2)CC1 | 8.0 | -5 | 8 | -0.9 | i | -8 | 0.8 | 4 | 0.7
Cc1ccccc1N/C(=N/S(=O)(=O)c1ccccc1)c1ccc(F)cc1 | 3.1 | -2 | 18 | 1.4 | i | 1 | -2.8 | -6 | 0.7
CCN(CCNCC(O)COCc1ccc(Cl)cc1)c1cccc(C)c1 (stereo not drawn) | 1.5 | -51 | -54 | -13 | i | . | 4.8 | 24 | 0.63
O=C(NCCc1ccccc1O)c1cc2c(cc1[N+](=O)[O-])OCO2 | . | -2 | 17 | -2.3 | i | . | 2.8 | 0 | .
O=S(=O)(c1ccccc1F)N1CCN(c2nc(-c3cccnc3)nc3ccccc23)CC1 | 3.4 | 1 | 9 | -0.1 | i | -6 | 7.2 | 12 | 0.7
COc1ccc(OC)c(-n2c(-c3cnccn3)n[nH]c2=S)c1 | 12 | . | . | . | . | 27 | 4.1 | 0 | 0.71
Cc1ccc2cc(CN(CCCO)S(=O)(=O)c3cccc4nsnc34)c(=O)[nH]c2c1 | 3.2 | 5 | -1 | -2.0 | . | -4 | 1.6 | -6 | 0.67
CC1=NOC2(C1)N(C)c1ccccc1C2(C)C (stereo not drawn) | 2.1 | . | . | . | . | -45 | -1.1 | -3 | 0.7
CC(=O)Nc1nc(SCc2cccc3ccccc23)n[nH]1 | 4.1 | . | . | . | . | 4 | 0.1 | -5 | 0.69
O=C(CN1C(=O)NC2(CCCCCCC2)C1=O)N1CCOCC1 | 3.7 | . | . | . | i | -6 | 14 | -5 | 0.72
O=C(NCc1ccco1)/C(=C\c1ccco1)NC(=O)c1cccs1 | 1.4 | 24 | 23 | 4.1 | i | -2 | -3.4 | 3 | 0.63
COc1ccccc1NC(=O)Nc1cccc(C)n1 | 4.3 | -2 | -3 | -0.4 | i | -9 | 0.2 | 8 | 0.7
Cc1nc(N)nc(N)c1/C=C/C(C)(C)c1ccc(Cl)cc1 | 1.6 | -53 | -82 | -31 | i | . | 5.2 | 10 | 0.069*
Cc1ccc(C(=O)NC2CC2)cc1S(=O)(=O)N1CCOCC1 | -1.8 | 8 | 10 | 0.8 | i | -1 | -0.8 | -2 | 0.68
CCc1nc2ccc(C(=O)NCCCN3CCCC3=O)cn2c1N(CC)CCOC | . | 3 | 14 | -4.7 | i | . | -2.5 | . | .
CCOC(=O)c1sc2nc(SCC#N)n(CCCN3CCCC3=O)c(=O)c2c1C | 2.7 | . | . | . | . | . | 5.0 | -15 | 0.65

As entered above:
Cc1ccc(C(=O)NC2CC2)cc1S(=O)(=O)N1CCOCC1 in UCH37 inh shows -1.8
O=S(=O)(c1ccccc1F)N1CCN(c2nc(-c3cccnc3)nc3ccccc23)CC1 in Ecoli growth shows 0.7

Remaining list, next part.
SMILES | UCH37 inh | Ecoli rRNA inh | Ecoli rRNA inh OD600 | Ecoli rRNA inh RFP | FGF22 binding | ALR inh | HNF4A DNA FP | Beta2AR agonist | Ecoli growth
S=C(Nc1ccc(Br)cc1)NC1CCN(Cc2ccccc2)CC1 | 2.7 | 3 | -25 | 23 | i | 17 | 3.2 | 2 | 0.61
CC(=O)NC(c1ccc(Cl)cc1Cl)c1ccc2cccnc2c1O (stereo not drawn) | . | 7 | 0 | 12 | i | -4 | -0.9 | 11 | .
COc1cccc(CN2CCN(Cc3ccc4c(c3)OCCO4)CC2CCO)c1 (stereo not drawn) | 5.9 | -20 | -36 | -19 | i | 9 | -0.5 | 8 | 0.69
Cc1cc(SCC(=O)N(C)C2CCS(=O)(=O)C2)nc2c(C)cccc12 (stereo not drawn) | 4.8 | 9 | 2 | -0.6 | i | 1 | -0.5 | 8 | 0.7
O=C(NN=Cc1ccc2c(c1)CCC2)c1cccc([N+](=O)[O-])c1 | . | -5 | 18 | -4.2 | i | . | 1.6 | . | .
CCN1CCN(C(=O)CCN2C(=O)COc3ccc(C)cc32)CC1 | -0.4 | . | . | . | . | -2 | 1.4 | -1 | 0.68
Cc1c(NC(=O)CN2C(=O)NC(C)(c3ccccc3)C2=O)c(=O)n(-c2ccccc2)n1C (stereo not drawn) | 3.5 | 18 | 16 | -7.2 | i | -2 | 1.9 | -2 | 0.61
Cc1csc(NC(=O)C2CCN(S(=O)(=O)c3ccc4c(c3)oc(=O)n4C)CC2)n1 | 5.8 | -7 | -2 | 0.1 | i | 2 | -0.1 | -20 | 0.69
Cc1ccc(Cc2c(-c3ccc(Cl)cc3)nc3cc(C)c(Br)c(C)n23)cc1 | . | -13 | -8 | 2.7 | i | . | 1.7 | . | .
Cc1cccc[n+]1CC(=O)Nc1ccccc1 | -0.7 | 22 | 18 | 1.6 | i | -2 | -0.6 | 1 | 0.68
CCOCCc1nn2c(=O)cc(CSCC(=O)Nc3cccc(C)c3C)nc2s1 | 5.7 | 2 | 5 | -1.6 | i | -1 | 9.8 | 5 | 0.7
c1ccc(C2=Nn3c(Cn4nnc5ccccc54)nnc3SC2)cc1 | 5.6 | -18 | -19 | -2.7 | i | -16 | 0.2 | -14 | 0.69

Part of the list above, showing only UCH37 inh, Ecoli rRNA inh OD600 and ALR inh:
mol	UCH37 inh	Ecoli rRNA inh OD600	ALR inh
O=C(NN=Cc1ccc2c(c1)CCC2)c1cccc([N+](=O)[O-])c1	.	18	.
CCN1CCN(C(=O)CCN2C(=O)COc3ccc(C)cc32)CC1	-0.4	.	-2
Cc1c(NC(=O)CN2C(=O)NC(C)(c3ccccc3)C2=O)c(=O)n(-c2ccccc2)n1C (stereo not drawn)	3.5	16	-2

Compound activity (PubChem BioAssay)
